Sfp PPTase inh: qHTS Assay for Inhibitors of Bacillus subtilis Sfp phosphopantetheinyl transferase (PPTase). 310,000 tested, 3.5% active. AID 1490, 2009. Biochemical Sfp PPTase activity, qHTS. Potency, µM, for the others: max response, negative = inhibition, hits mostly inhibitors; active means well fitted inhibition curve with a large enough effect; inconclusive means small, poorly fitted or top-dose-only effect, or another doubt; inactive means no such curve, though single readings can be large or run the other way;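 further: the enzyme is Sfp with the accession as filed and its product quenches rhodamine fluorescence; potency means the concentration at half of the fitted maximal effect; 0% = enzyme reaction without inhibitor and -100% = no enzyme wells; top concentration of the series not given in the record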
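After 15 min at room temperature with compound, 15 nM Sfp received 5 uM rhodamine-CoA plus 12.5 uM BHQ-2-ybbR (50 mM Hepes pH 7.6, 10 mM MgCl2). Rate came from the fluorescence difference over 30 min, ex 525/em 598 nm.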
gsp antag: qHTS for Antagonists of gsp, the Etiologic Mutation Responsible for Fibrous Dysplasia/McCune-Albright Syndrome: qHTS; gsp-mutant cells, cAMP HTRF, 30 min; control for the full effect not named in the record; Potency, µM (highest dose often 76.9 µM), for inactives: top-dose activity change, negative = inhibition, hits mostly inhibitors; 340,000 tested, 0.4% active; AID 624288, 2012; active = falling curve of any shape with a large fitted effect; inconclusive = falling curve, mostly with a smaller effect; inactive = flat or rising curve; cell line not stated here;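 further: intracellular cAMP measured with PDE inhibitor Ro 20-1724 present during compound exposure; potency means the concentration at half of the fitted maximal effect; on the % scale 0 is the no-effect control and ±100 the full control effect; nearly all actives have a fitted effect of over 65% in size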
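G418-selected cells were plated in DMEM/10% FBS for 16-24 h at 37C, then treated with compounds plus the PDE inhibitor […] (300 uM solution added) for 30 min at 37C. Intracellular cAMP was measured by HTRF after 30 min lysis at room temperature.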
gsp ag: qHTS for Agonist of gsp, the Etiologic Mutation Responsible for Fibrous Dysplasia/McCune-Albright Syndrome: qHTS. AID 624287, 2012. gsp mutant cells, cAMP HTRF, 30 min; control for the full effect not named in the record. 340,000 tested, 0.13% active. Potency, µM (top dose mostly 76.9 µM), for the others: at the top dose activation (cAMP increase), actives largely listed as activators; active = well fitted activation curve with a large enough effect; inconclusive = small, poorly fitted or top-dose-only effect, or another doubt; inactive = no such curve, though single readings can be large or run the other way; cell line not stated here;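 further: phosphodiesterase inhibitor Ro 20-1724 added with compounds to block cAMP breakdown; potency means the concentration at half of the fitted maximal effect; nearly all actives have a fitted effect of over 60% in size; about a fifth of the inactives were tested at one dose only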
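Cells in DMEM/10% FBS with G418 were pretreated with compounds in DMSO plus […] (300 uM stock) for 30 min at 37C. cAMP was measured by HTRF (cAMP-d2 plus anti-cAMP antibody-K) after 30 min at room temperature.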
TRPML1 blocker: qHTS for Inhibitors of the Human Mucolipin Transient Receptor Potential 1 (TRPML1) | AID 624415, 2012 | activity change, negative = inhibition, % (no concentration beside the values) | Mucolipin-1 (Homo sapiens), Q9GZU1 | TRPML1-inducible cells, Ca2+ dye fluorescence, FDSS; stronger effect = lower value; inhibition of EC80 agonist-evoked calcium signal | 390,000 tested, 0.02% active; in the data active means activity change below about -50%; inconclusive means about -30% to -50%; inactive means above about -30%;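 further: stimulus is agonist 54-4 at its EC80 concentration; on the % scale 0 is the no-effect control and ±100 the full control effect; compound concentration not given in the record; the text of the record puts the active cut at -80%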
Target sequence (Q9GZU1 whole entry, looked up): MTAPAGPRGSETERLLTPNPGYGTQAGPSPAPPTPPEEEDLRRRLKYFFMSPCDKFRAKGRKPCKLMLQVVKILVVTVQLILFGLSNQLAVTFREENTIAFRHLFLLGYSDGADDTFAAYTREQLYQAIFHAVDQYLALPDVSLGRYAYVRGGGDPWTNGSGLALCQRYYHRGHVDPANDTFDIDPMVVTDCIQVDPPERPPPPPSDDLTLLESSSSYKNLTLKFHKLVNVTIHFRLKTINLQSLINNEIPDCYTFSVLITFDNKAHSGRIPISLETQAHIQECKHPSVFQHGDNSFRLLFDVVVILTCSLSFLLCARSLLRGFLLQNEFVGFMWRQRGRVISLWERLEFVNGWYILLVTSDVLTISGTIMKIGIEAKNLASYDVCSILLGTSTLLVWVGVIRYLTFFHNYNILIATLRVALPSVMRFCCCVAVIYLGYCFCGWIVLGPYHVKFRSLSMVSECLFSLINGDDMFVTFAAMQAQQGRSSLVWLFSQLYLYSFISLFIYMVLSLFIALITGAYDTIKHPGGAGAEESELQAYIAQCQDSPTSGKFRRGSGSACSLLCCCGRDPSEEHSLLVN
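Calcium fluorescence in TRPML1-DL cells induced overnight with Tet: a 110 s read after compound pin addition, then a 110 s antagonist read after challenge with 54-4 at 4 uM final (EC80).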
Menin MLL FP FL: qHTS Assay for Inhibitors Targeting the Menin-MLL Interaction in MLL Related Leukemias: Competition With Fluorescein Labeled MLL-derived Peptide. 290,000 tested, under 10 active. FP activity change, % at 61.4 µM. Fluorescence polarization, fluorescein-MLL peptide displacement from menin. AID 1766, 2009; inconclusive = falling polarisation curve, or a change in total fluorescence; inactive = total fluorescence flat and polarisation flat or rising; no compound was filed as active; the % refers to the polarisation; negative = inhibition;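 further: % of control where 0% means no effect; inhibitors lower the polarisation; unlabelled MLL peptide was the positive control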
TRPV1 PAM: HTS Assay for Compounds that Act as Potentiators of the Vanilloid Receptor 1 | Transient receptor potential cation channel subfamily V member 1 (Homo sapiens), Q8NER1 | TRPV1-expressing cells, Fluo-8 calcium influx, capsaicin EC20 potentiation; host cell line not named in the record; control for the full effect not named in the record | potentiation, % at 8.33 µM | 320,000 tested, 0.02% active | AID 540277, 2011; active means potentiation above 80%; inconclusive means 30% to 80%; inactive means below 30%; further: 0% is about no effect
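Fluo-8 calcium influx in TRPV1-expressing cells, kinetic read (ex 480/em 520 nm). Compound added and read 3 min for agonist activity, followed by capsaicin at EC20 final and 2 min further read for enhancement.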
ClpP mod: qHTS Assay for Activators of ClpP. ATP-dependent Clp protease proteolytic subunit (Bacillus subtilis (strain 168)), P80244. purified B. subtilis ClpP, FRET peptide cleavage, 20 min. Potency, µM (doses to about 57.5 µM), inactives show at the top dose activity change, negative = active. 340,000 tested, 1.9% active; active = well fitted falling curve with a large enough effect; inconclusive = small, poorly fitted or top-dose-only effect; inactive = no such curve, though single readings can be large or run the other way; further: potency means the concentration at half of the fitted maximal effect; the source files actives as falling curves though it sought activators and does not explain the sign; nearly all actives have a fitted effect of over 65% in size; many hits overshoot -100%
Target sequence (P80244 whole entry, looked up): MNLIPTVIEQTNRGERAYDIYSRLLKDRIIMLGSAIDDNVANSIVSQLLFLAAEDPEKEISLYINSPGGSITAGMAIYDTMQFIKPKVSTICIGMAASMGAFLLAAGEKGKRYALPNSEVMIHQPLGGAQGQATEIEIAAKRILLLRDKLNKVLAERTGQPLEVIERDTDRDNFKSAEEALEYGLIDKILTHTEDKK
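Purified B. subtilis ClpP, 10 microg/mL final in Tris/HCl pH8 with KCl, BSA, glycerol and Tween-20, cleaved an Abz/nitrotyrosine-quenched decapeptide. Fluorescence (ex 320, em 430) was read at 0 and 20 min at room temperature. Delta was normalized to 5.8 microM ADEP and DMSO/no-enzyme controls.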
* hit, by the source's call; ? = inconclusive; · = not tested or not shown; & = joins results of further samples; ! = not confirmed by another sample; [ ] = another dose, or the depositor's remark.

SMILES	Sfp PPTase inh	gsp antag	gsp ag	TRPML1 blocker	Menin MLL FP FL	TRPV1 PAM	ClpP mod
COc1ccc(CN(C(=O)c2cccs2)c2ccccc2)cc1	-5%	-59%	-15%[15.4 µM]	-14	0.3	-4	1.0%
Cc1cc2ncn(C(=O)c3ccc(F)cc3)c2cc1C	10%	-3%	-2%[15.4 µM]	3	-7.1	3	-4.4%
O=C(Nc1sc2c(c1C(=O)O)CCC2)c1ccco1	22%	?	4%	9	4.5	?	-4.0%
COc1cccc(-c2nnc3sc(-c4cccs4)nn23)c1	1%	-5%	21%	-7	0.9	-15	-1.9%
COc1cc(C(C)=O)ccc1Oc1cc(NN2CCCCC2)c([N+](=O)[O-])cc1[N+](=O)[O-]	15%	-13%	2%	1	0.9	18	1.6%
CC(C)C(=O)n1nc(-c2cccnc2)nc1NCc1ccc(F)cc1	-19%	-7%	-10%[15.4 µM]	1	1.4	9	1.2%
Nn1c(SCC(=O)NCCc2ccc(F)cc2)nnc1C1CCCCC1	·	-6%	14%	-9	·	-8	-0.6%
O=C(N/N=C/c1ccccn1)c1cc(-c2ccccc2)nc2ccccc12	-24%	-3%	20%	-4	1.4	-9	-4.4%
Cn1cc(Br)c(C(=O)N/N=C/c2cc3ccccc3nc2Cl)n1	14%	?	6%	-1	·	-18	-0.1%
Cc1nn(Cc2c(Cl)cccc2Cl)c(C)c1C(=O)NCc1ccc(C)n1C	-4%	8%	-82%[inhibitor]	7	-5.2	0	-8.1%
O=C1CC(c2ccc(F)cc2)CC(O)=C1C=NCCN1CCN(C(=O)Nc2ccccc2)CC1 (stereo not given)	28%	-2%	-6%	-7	-0.4	·	-0.2%
Cc1ccnc(NC(=O)c2ccc(Br)s2)c1	8%	0%	13%	-8	4.9	-2	-2.6%
Cc1ccc(N2CC(C(=O)N/N=C/c3sccc3C)CC2=O)cc1 (stereo not given)	-4%	-3%	7%[15.4 µM]	16	5.1	6	1.3%
CCNC(=O)N1CCNC(=O)C1CC(=O)Nc1ccc(C(=O)OCC)cc1 (stereo not given)	13%	6%	2%	-14	6.8	7	-5.9%
S=c1[nH]nc(-c2ccncc2)n1CC1CCCO1 (stereo not given)	?	18%	-40%[inhibitor]	-5	1.3	2	0.7%
CCOc1nnc(C)c2c(C)n(-c3ccc(Cl)cc3)nc12	4%	11%	3%	20	-1.0	·	-0.5%
COc1ccccc1N1CCN(Cc2ccco2)CC1	-24%	5%	8%	-16	0.8	?	-0.1%
Cc1ccc(N(C)C(=O)c2cnn(-c3ccccc3)c2C)c(C)c1	-1%	1%	-24%	-13	-2.9	-5	·
CCCCOc1ccc(CSc2nncn2N)cc1	-7%	4%	20%	-8	6.8	-1	3.6%
O=c1cc2oc3cc(O)c(O)cc3c(-c3ccccc3O)c-2cc1O	79µM*	-6%	18%	14	?	7	0.4%
COCCNC(=O)c1c(C)cc(C)cc1C	8%	10%	?	-13	1.1	14	·
Cc1[nH]c2ccccc2c1CCC(N)=O	6%	-7%	-36%[inhibitor]	22	-1.1	-8	-9.3%
CC(C)(C)c1ccc(OC(=O)CN2C(=O)C3C4CCC(C4)C3C2=O)cc1 (stereo not given)	22%	-6%	-1%	24	-1.0	6	-10%
CCCOC(=O)CCCCCCCCC(O)CN1CCCCC1 (stereo not given)	8%	11%	-14%[15.4 µM]	-4	-4.6	-10	-0.6%
Cc1ccc(NC(=O)NN(C)c2c(Cl)c(Cl)nn2C)cc1	3%	?	19%	2	0.6	-2	·
Cc1ccc(Cl)cc1N1CCN(C(=O)CCCn2c(=O)c3cccn3c3cccnc32)CC1	-5%	?	?	-10	6.2	9	-13%
CC(=O)NCc1ccc(S(=O)(=O)N2CCN(S(=O)(=O)c3ccc4ccccc4c3)CC2)cc1	·	7%	-24%	10	·	-2	-1.5%
CCOC(=O)C1(Cc2ccccc2C(F)(F)F)CCN(C(C)COC)CC1 (stereo not given)	-5%	3%	-50%	5	3.3	-8	0.0%
CC1CCN(C(=O)c2ccc(Br)c(S(=O)(=O)N3CCOCC3)c2)CC1	11%	5%	6%[15.4 µM]	4	6.9	-3	·
COC(=O)C=CC(=NNc1ccccc1)c1ccccc1	·	-33%	-3%	-7	·	·	·
CCOC(=O)/C=C/S(=O)(=O)c1ccc(NC(C)=O)cc1	40µM*	3%	6%	23	4.9	7	-0.2%
NS(=O)(=O)c1ccc(CNC(=O)Cc2ccc(S(=O)(=O)N3CCOCC3)s2)cc1	·	4%	4%[15.4 µM]	-13	·	9	·
COc1cc(NC(=O)CSCC(=O)Nc2cc(OC)cc(OC)c2)cc(OC)c1	3%	-6%	?	29	2.5	12	0.6%
S=c1[nH]c2cc3ccccc3cc2[nH]1	56µM*!	6%	?	-5	?	-5&10	1.6%
COc1ccc(NC(=O)CCN2C(=O)c3cccc([N+](=O)[O-])c3C2=O)cc1	24%	-13%	-14%	7	5.0	-25	·
O=c1[nH]c2ccc(NC(=S)NCc3ccccc3)cc2[nH]1	-9%	6%	-4%	10	1.4	10	2.1%
O=C(c1ccccc1[N+](=O)[O-])N1CCc2ccccc2C1	10%	4%	6%	-5	10	6	-2.6%
Cc1ccc(S(=O)(=O)N2C[C@H]3N(C(=O)OC(C)C)N(C(=O)OC(C)C)C[C@H](OC(=O)NCc4ccccc4F)[C@@]3(O)C2)cc1	·	·	-122%[inhibitor]	-3	·	·	-0.4%
Cc1cccc(N2CCN(C(=O)CCc3nc4ccccc4[nH]3)CC2C)c1 (stereo not given)	3%	2%	-14%	5	0.2	12	-0.8%
CCOc1cc(/C=C2\NC(=S)N(C)C2=O)ccc1OCc1ccc(C(=O)O)cc1	-1%	?	?	-2	9.5	2	0.5%
O=C(CCS(=O)(=O)c1ccc(Cl)cc1)Nc1nnc(-c2ccco2)o1	·	-3%	-8%[15.4 µM]	-6	·	3	-2.4%
CS(=O)(=O)N(CC(=O)N1CCOCC1)c1ccccc1	9%	6%	-126%[inhibitor]	-9	-3.8	-1	·
Cc1cccc(NC(=O)c2ccc(-n3ccnc3)nc2)c1	-5%	7%	-16%	5	4.5	-10	0.0%
COc1ccc(N2CCOCC2)c(NC(=O)c2cccc3ccccc23)c1	-10%	-8%	-4%	·	-1.3	-19	-2.8%
Cc1cc(=O)oc(C)c1C(=O)OCC(=O)c1ccc(Cl)cc1	7%	-13%	?	18	1.8	-17	-3.2%
Cc1cc(Br)ccc1NC(=O)CCSc1ccccc1	13%	-7%	-36%[inhibitor]	0	-1.1	6	-1.8%
CC(C)(C)OC(=O)N[C@H](C(=O)OC(C)(C)C)c1ccc2c(c1)OCO2	·	0%	3%	1	·	-26	1.2%
Cc1ccc2c(c1)C(=O)CC1(CCCCCC1)O2	-11%	6%	?	8	0.6	-19	?
CC(=O)Nc1ccc(S(=O)(=O)Nc2ccc(-c3ccc4nnc(C)n4n3)cc2)cc1	4%	6%	7%[15.4 µM]	25	4.5	8	·
COc1ccc(N2C(=O)C3CC(C)=C(C)CC3C2=O)c(OC)c1 (stereo not given)	26%	11%	-13%	-15	3.6	-8	-0.4%

More records follow:
SMILES	Sfp PPTase inh	gsp antag	gsp ag	TRPML1 blocker	Menin MLL FP FL	TRPV1 PAM	ClpP mod
Cc1cc(C)c2c3c(cn2n1)c(=O)n(C)c(=O)n3C	·	-7%	-23%	5	·	·	-3.9%
N#Cc1ccccc1S(=O)(=O)N1CCN(c2nc(-c3ccccc3)nc3ccccc23)CC1	·	·	-7%	-3	·	·	?
Cc1ccc(S(=O)(=O)N(C)C[C@H]2Oc3ccc(NC(=O)Nc4c(C)noc4C)cc3CC(=O)N([C@@H](C)CO)C[C@@H]2C)cc1	·	1%	?	18	·	·	-0.1%
CN(CC(=O)Nc1ccccc1C(F)(F)F)C(=O)c1cccc(-n2cccc2)c1	·	2%	-12%	3	·	11	1.2%
COc1cccc(NC(=O)CN(C)C(=O)c2ccc(COc3ccccc3)o2)c1	·	-10%	-22%	-4	·	-7	0.2%
CC(C)NC(=O)Nc1cccc2c1O[C@H](CN(C)C(=O)NC1CCCCC1)[C@H](C)CN([C@H](C)CO)C2=O	·	4%	5%	-18	·	·	?
CN1C(=O)CS(=O)c2ccc(C(=O)NCCC3=CCCCC3)cc21 (stereo not given)	-6%	-5%	-58%[inhibitor]	-8	0.5	·	2.1%
CCn1cnc2c1c(=O)n(CC(=O)Nc1cc(C)on1)c(=O)n2Cc1ccccc1	-4%	3%	-5%	5	1.4	25	-1.1%
Cc1cc(=O)oc(C)c1C(=O)Nc1ccc(F)cc1	10%	10%	-43%[inhibitor]	-6	1.6	-10	0.7%
F[B-](F)(F)c1cncc2ccccc12	·	4%	·	-3	·	·	-8.7%
Cc1ccc2c(c1)nc(NCCO)n2C	6%	9%	?	-10	0.5	-14	-23%
CC1Cc2nc(SCC(N)=O)n(Cc3ccccc3)c(=O)c2S1 (stereo not given)	24%	-5%	?	12	-0.9	18	-0.1%
Cn1c(SCc2ccc(C(=O)Nc3nccs3)cc2)nnc1-c1ccccc1	6%	8%	0%	9	3.6	-1	-1.2%
C#CCOCCOCCOCCNc1nc(N2CCN(C(=O)CCCCCCCCCCNC(=O)Cn3cc(CCCCCN)nn3)CC2)nc(N2CCN(C(=O)CCCCCCCCCCNC(=O)[C@H](CO)n3cc(CCCCCN)nn3)CC2)n1	·	9%	-7%	18	·	?	1.2%
